Screening results from PubChem.
BasE inh = inhibitors of Acinetobacter baumannii siderophore enzyme BasE; 84,000 tested, 0.1% active; AID 485350; purified BasE, fluorescence polarization binding displacement; inhibition, % (concentration not given with the values);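 active means both replicates above 25% with normal brightness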;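 further: 0% = negative plate control signal and 100% = positive plate control signal; stock transfer was 100 nL into about 30 µL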
LANA-nucl inh = LANA-nucleosome interaction inhibition | FITC-LANA1-23 / chicken nucleosome fluorescence polarization; stronger effect = lower value | z-score (concentration not given with the values) | 51,000 tested, 0.3% active;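 active means both repeat wells score below -2 in polarization z-score versus plate sample wells, excluding overly bright wells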;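 further: 100 nL library stock added to about 30 µL; numbers are from one replicate; some results filed as inactive read as strong as hits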
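Assay system: FITC-LANA peptide and chicken nucleosomes; input: 240 nM purified chicken nucleosomes (480 nM peptide binding sites), final; also added: 50 nM FITC-LANA1-23 probe; medium: TEN-BT buffer, pH 7.5; doses: pin-transferred compound, 100 nL; times: 10–45 min, room temperature; technique: fluorescence polarization; replication: duplicates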
Starred values were filed as active, the others as inactive; . = no result given.

Value order – BasE inh | LANA-nucl inh
CCNC(=S)N1N=C2c3ccccc3CCC2C1c1ccc(F)cc1 (configuration not stated)
→ -0.5 | .
O=C(NC(c1ccccc1)c1ccccc1)N1CCCCC1
→ -1.2 | -0.63
CC1CCCCN1C(=O)COC(=O)c1ccc(-n2cnnn2)cc1 (configuration not stated)
→ 0.0 | .
S=C1NCN(CCc2ccccc2)CN1CC1CCCO1 (configuration not stated)
→ 2.5 | -1.2
COc1ccc(NC(=O)c2ccc(NC(=O)CSC3=NCCN3)cc2)cc1
→ -13 | .
CC(C)C(=O)NCCc1nc2ccccc2n1C
→ 0.9 | -1.1
COc1cccc(/C=C2\Oc3ccccc3NC2=O)c1
→ 0.2 | 0.03
CCOc1ccc(CN(C)C(=O)c2cn3ccccc3n2)cc1
→ -0.5 | .
O=C(O)CCC(=O)Nc1ccc(N2CCCCC2)c(C(=O)O)c1
→ 0.5 | -1.3
CCOC(=O)c1oc2ccccc2c1COC(=O)c1ccccc1OCC
→ -2.6 | .
O=C(CO/N=C/c1cccs1)N1CCCc2ccccc21
→ 1.6 | .
CN1CCN(c2nnc(-c3ccccc3)c(-c3ccccc3)n2)CC1
→ . | 0.093
CN=c1scc(-c2c[nH]c3ccccc23)n1C
→ -0.2 | .
COc1ccc(S(=O)(=O)N(C)CC(=O)N2CCCC2)cc1
→ -1.9 | 0.78
CCCCC(=O)C1CCOC(C)(C)C1 (configuration not stated)
→ 1.2 | -1.2
CCn1c(Cn2nnc3ccccc32)nnc1SCC(=O)c1ccc(Br)cc1
→ 4.2 | .
Cc1nc2ccc(NC(=O)C(C)(C)C)cc2s1
→ -1.7 | 2
COC(=O)C1=C(CNC2CCCCC2)NC(=O)NC1c1cccc(OC)c1 (configuration not stated)
→ -2.5 | -0.075
NC1=Nc2cccc3cccc1c23
→ 1.3 | .
COc1cc(C)cc(OC)c1OCC(=O)Nc1cccc(C#N)c1
→ 0.0 | .
CC(=O)Nc1ccccc1O
→ -1.0 | .
O=C(NCc1ccccc1)c1ccccc1NCC(=O)N1CCCCC1
→ 1.5 | .
O=C(C(O)c1ccccc1)N1N=C2CCCCC2C1(O)C(F)(F)F (configuration not stated)
→ 0.9 | 0.63
CCCCC(CC)C(=O)Nc1ccccc1C#N (configuration not stated)
→ 3.5 | -0.044
Cc1ccc(C(=O)c2ccc(N3CCOCC3)c(F)c2)cc1
→ 1.3 | 0.16
O=S(=O)(c1cccc(F)c1)N1CCN(c2nc3ccc(Cl)cc3s2)CC1
→ 0.3 | -0.43
Cc1sc2ncnc(N3CCc4ccccc43)c2c1C
→ 4.0 | .
CSc1ncccc1C(=O)Oc1ccc2c(c1)OCO2
→ -0.8 | .
N#C/C(=C\c1ccc(-c2ccc(S(=O)(=O)N3CCOCC3)cc2)o1)C(=O)NCc1ccccc1
→ -2.3 | .
COC(=O)c1c2ccccc2c(C)c2ccccc12
→ -1.4 | .
Cc1cc(C)c2nc(SCc3nnc(-c4ccccc4)o3)cc(C)c2c1
→ -0.5 | .
S=C1N(c2ccccc2)C(c2ccccc2)N2CCCN12 (configuration not stated)
→ -0.7 | -0.3
COc1ccc(C2C=C(C(=O)O)Nc3ncnn32)cc1OC (configuration not stated)
→ . | -1.1
COc1ccc(C(=O)n2nc(-c3cccnc3)nc2N)cc1
→ 2.3 | -0.78
O=c1c2ccccc2nnn1CSc1nncs1
→ 12 | .
O=C(CC12CC3CC(CC(C3)C1)C2)Nc1ccccc1N1CCOCC1
→ 2.9 | .
Cc1cccc(NC(=O)c2ncoc2-c2ccccc2Cl)c1C#N
→ -0.3 | 0.17
Cc1cc(C)n2c(C#N)c(C#N)nc2n1
→ -1.1 | .
COC(=O)c1c(C)[nH]c(C(=O)CN(C)Cc2cccc(OC)c2)c1C
→ -4.6 | .
Cn1c(=O)n2n(c1=O)C1C=CC2C1
→ -1.4 | 0.019
COC(=O)C1=C(C)NC(C)=C(C(=O)OC)C1C(=O)OC(C)C(=O)Nc1ccc(C)cc1 (configuration not stated)
→ 1.4 | .
O=C(CCSCc1ccccc1)NCc1ccco1
→ -1.1 | -0.8
O=C(CCCn1c(=O)c2ccc(Cl)cc2n(CC(=O)c2cccc(Br)c2)c1=O)NCc1ccco1
→ 0.4 | 0.2
Cc1nc(SCC(=O)N(C)C2(C#N)CCCCC2)c2ccccc2n1
→ -4.3 | .
Cc1cccc(NC(=S)Nc2c(C(C)C)cccc2C(C)C)c1
→ -0.9 | .
COc1ccccc1Nc1ccc(S(=O)(=O)N2CCCC2)cn1
→ 0.6 | .
CCc1nc2ccccc2c(C(=O)OCC(=O)N(C)C)c1C
→ -0.8 | .
COc1ccc(C(=O)c2c(NC(C)=O)sc3c2CCN(C(=O)OC(C)(C)C)C3)cc1
→ 2.6 | .
COc1ccc(/C=C/C(=O)C2C(=O)COC2=O)cc1OC (configuration not stated)
→ 0.6 | 0.51
Oc1cc(O)c2c(c1)O[C@H](c1ccc(O)c(O)c1)[C@H](O)C2
→ -0.1 | 0.42
CCn1c2ccccc2c2nnc(NCCc3ccccc3)nc21
→ 1.1 | 0.17
CN(C(=O)C1CCN(c2ncnc3c2nc2n3CCCCC2)CC1)c1ccccc1
→ -3.2 | 1.1
COc1ccc(C(=O)NC(=S)N2CC(C)OC(C)C2)cc1 (configuration not stated)
→ 4.6 | -0.28
Cc1ccc(S(=O)(=O)N(c2cc(C)nn2C)S(=O)(=O)c2ccc(C)cc2)cc1
→ -3.3 | .
CC(=O)Oc1ccc(C(=O)Nc2ccccc2NC(=O)c2ccc(OC(C)=O)cc2)cc1
→ 1.9 | .
Cc1cc(N(C(=O)Cn2nnc3ccccc32)C(C(=O)NCC2CCCO2)c2ccc(F)cc2)ccc1-n1cnnn1 (configuration not stated)
→ 4.4 | 0.03
O=C(COc1ccc(C(F)(F)F)cn1)Nc1ccc(C(F)(F)F)cc1
→ -1.3 | .
Cc1ccc(S(=O)(=O)NCc2cccs2)cc1
→ 0.8 | 0.19
N#CCCn1c(SCC(=O)N2CCCC2c2ccc3c(c2)OCCCO3)nc2ccccc21 (configuration not stated)
→ 2.1 | .
Cc1cc(C)nc(/N=C(/NC(=O)Cc2ccccc2)N2CCC(C(N)=O)CC2)n1
→ 0.5 | .

Arranged by number of heavy atoms (rising): some entries from above
Value order – BasE inh | LANA-nucl inh
O=C(CCSCc1ccccc1)NCc1ccco1
→ -1.1 | -0.8
COc1ccc(/C=C/C(=O)C2C(=O)COC2=O)cc1OC (configuration not stated)
→ 0.6 | 0.51
CCc1nc2ccccc2c(C(=O)OCC(=O)N(C)C)c1C
→ -0.8 | .
Cc1cc(C)nc(/N=C(/NC(=O)Cc2ccccc2)N2CCC(C(N)=O)CC2)n1
→ 0.5 | .
CN(C(=O)C1CCN(c2ncnc3c2nc2n3CCCCC2)CC1)c1ccccc1
→ -3.2 | 1.1
COC(=O)C1=C(C)NC(C)=C(C(=O)OC)C1C(=O)OC(C)C(=O)Nc1ccc(C)cc1 (configuration not stated)
→ 1.4 | .

More structures.
Value order – BasE inh | LANA-nucl inh
O=C(COc1cccc[n+]1[O-])N1CCc2ccccc21
→ 3.1 | .
Cc1c(C(C)NC(=O)COc2ccc(Br)cc2Cl)cnn1C (configuration not stated)
→ -3.9 | 2.6
CCOC(=O)c1ccccc1NC(=O)CSc1nc(N)cc(=O)[nH]1
→ 3.1 | .
COc1cc(C)c(C(C)C)cc1S(=O)(=O)N1CCN(c2cccc(Cl)c2)CC1
→ -1.5 | .
CCN1C(=O)/C(=C/N(C(C)=O)c2ccccc2)OC1=S
→ 1.1 | -0.21
CSc1n[nH]c(NS(=O)(=O)c2ccc(Cl)cc2)c1-c1ccccn1
→ 3.1 | .
COC(=O)c1sc(N)c(C#N)c1C
→ -1.5 | -0.51
N/C(=N\O)C12CC3CC(CC(C3)C1)C2
→ 2.7 | .
N=C(N)n1nc(-c2ccccc2)cc1N
→ -0.8 | -0.57
COc1ccc(CN(C(=O)CCN2C(=O)c3ccccc3S2(=O)=O)c2ccccc2O)cc1
→ 0.7 | .
CCN1/C(=C2/SC(=S)N(N)C2=O)C=Cc2cc(C)ccc21
→ 1.3 | .
O=C(c1cccs1)n1cc2c(n1)-c1cc(Cl)ccc1SC2
→ 1.9 | 0.51
CCN1CCCC1CNS(=O)(=O)c1ccc(-c2cc(C(F)(F)F)no2)s1 (configuration not stated)
→ -1.6 | .
O=C(C[n+]1cccc(/C=N/O)c1)N1CCOCC1
→ 0.7 | -0.3
CC(C)(C)N(Cc1ccccc1)C(=O)CSc1nnc(-c2ccccc2)o1
→ -0.1 | .
CC1(C)CC(=O)CC(C2(O)C(=O)N(Cc3ccccc3)c3ccccc32)O1 (configuration not stated)
→ 0.0 | .
O=C(ON1C(=O)CCC1=O)c1ccc(Br)o1
→ -0.7 | -0.02
OCCN1CCN(CC2CC=CCC2)CC1 (configuration not stated)
→ -25 | 2.5
Cc1nc2ccccc2c2c1C(=O)NC2=O
→ 3.0 | 0.68
COC(=O)c1cccc(C(=O)OC)n1
→ -0.9 | .
NS(=O)(=O)c1ccc(N=Cc2ccccc2)cc1
→ 1.7 | 0.53
O=c1[nH]nc(-c2ccco2)o1
→ 1.8 | .
O=C1c2nc3cc(-c4ccccc4)[nH]n3c(=O)c2CN1Cc1ccco1
→ 0.1 | -0.72
CC1CCCC(NS(=O)(=O)c2ccc3c(c2)OCCO3)C1C (configuration not stated)
→ 0.1 | .
CCN(CC)C(=O)CSc1nnc(COc2ccc(Br)cc2)o1
→ 3.6 | -0.21
COC(=O)c1sccc1Oc1ccc(C(F)(F)F)cc1NC(=O)c1ccc(Cl)cc1
→ 1.8 | .
Cc1cc(C)n(CCCNC(=O)c2ccc(S(=O)(=O)N3CCCCCC3)cc2)n1
→ 1.5 | .
Cc1c(C(=O)Nc2ccc(Cl)cc2)sc(N)c1C(N)=O
→ 0.2 | 0.95
CCCN1C(=O)c2[nH]nc(-c3ccccc3)c2C1c1ccccn1 (configuration not stated)
→ 1.1 | -0.19
Cc1cc(C(=O)CSc2nnc(Cc3cccs3)n2CCc2ccccc2)c(C)n1CC1CCCO1 (configuration not stated)
→ 1.4 | .
CN(C)C(CNC(=O)c1cccc(C#N)c1)c1ccco1 (configuration not stated)
→ 1.2 | .
CCCN1CCc2c(C)c(C#N)c3nc4ccccc4n3c21
→ -3.2 | -0.47
COc1ccc(/C=C2\SC(=S)N(CC(=O)Nc3ccccc3)C2=O)cc1
→ 1.1 | .
Cn1ccc(NC(=O)NC(=O)c2c(Cl)cccc2Cl)n1
→ -0.6 | -0.019
O=C(O)c1ccccc1C(=O)N1CCCCC1
→ -0.2 | 0.6
O=C(Nc1ccccc1C(F)(F)F)N1CCOc2ccccc21
→ -0.9 | -0.62
COc1cc(OC)c(C2=NOC(C(=O)NCC3CCCO3)C2)cc1Cl (configuration not stated)
→ 1.3 | -0.21
Cc1cc(C(=O)COc2ccccc2C(N)=O)c(C)n1C
→ 2.7 | .
CCOc1cc(/C=C2/C(=O)ON=C2C)ccc1OC(=O)c1cccs1
→ 1.8 | .
O=C(CN1C(=O)C2CC=CCC2C1=O)NCC(F)(F)F (configuration not stated)
→ -2.4 | .
CC(C)Cn1c(-c2ccccc2)nc2ccccc21
→ -1.0 | .
CCCn1c(SCC(=O)N2c3ccccc3CC2C)nc2ccccc21 (configuration not stated)
→ 0.9 | .
O=C(COC(=O)c1ccc(CN2CCCC2=O)cc1)c1ccc2c(c1)OCCO2
→ -3.4 | .
Cc1cc(=O)[nH]c(N/N=C/c2ccc(OC(=O)c3cccnc3)cc2)n1
→ -0.6 | .
O=C(O)C(c1ccccc1)N1C(=O)/C(=C\c2ccco2)SC1=S (configuration not stated)
→ 2.4 | -1.3
COc1ccccc1/C=C1/SC(=O)N(CN2CC(C)OC(C)C2)C1=O (configuration not stated)
→ 1.1 | -0.16
O=C(CC1OC(=O)c2ccccc21)c1ccc(-n2ccnc2)cc1 (configuration not stated)
→ . | 0.5
CCCC(=O)N1CCN(c2ccc(NC(=O)c3cc(OC)c(OC)c(OC)c3)cc2Cl)CC1
→ 4.2 | -0.63
C=CCn1c(=N)n(CCOc2ccccc2Cl)c2ccccc21
→ -7.8 | -0.57
CC(=O)N1c2ccccc2CC1C (configuration not stated)
→ 9.4 | 0.12
CCC(=O)N1CCc2ccccc21
→ 0.1 | -0.24
O=C(O)CN(CC(=O)Nc1cccnc1)Cc1ccccc1
→ 9.8 | 0.9
Cc1nnc(NC(=O)c2ccc(S(=O)(=O)N(CC(C)C)CC(C)C)cc2)o1
→ 0.2 | 0.34
NC(=O)CSc1nnnn1C1CCCCC1
→ 0.9 | -0.29
Cc1cc(S(=O)(=O)NCc2c(N(C)C)cccc2N(C)C)c(Cl)cc1Cl
→ 1.6 | .
Cc1ccccc1C(=O)c1c[nH]c(C(=O)NCc2ccccc2)c1
→ . | 0.15
Cc1cccc(COc2ccc3c(C)cc(=O)oc3c2)c1
→ -2.1 | .
N#CC(=Nc1cccnc1)C1=C(O)c2ccccc2C1=O
→ 4.9 | .
C(=NN1CCN(C2c3ccccc3-c3ccccc32)CC1)c1ccco1
→ 0.0 | 0.15
Cc1cc(C(F)(F)F)n(-c2nc(CCl)cs2)n1
→ . | 0.35

(listing goes on)
Value order – BasE inh | LANA-nucl inh
CCn1c(C(C)(C)C)nc2ccccc21
→ 0.1 | -0.19
Cc1cccc(-n2c3c(c(=O)[nH]c2=S)CN(CCc2ccccc2)CN3)c1
→ -4.5 | 2.1
CC(=O)N1C(Nc2ccc(Cl)cc2)CCN1c1ccccc1 (configuration not stated)
→ 2.0 | -0.6
CCC(=O)Nc1cccc2cccnc12
→ -3.4 | 1.8
COC(=O)/C=C1\SC(=NC(=O)c2ccc(OC)cc2)NC1=O
→ 1.5 | .
COc1ccc(OCc2nc3c4c(C)c(C)oc4ncn3n2)cc1
→ -0.4 | .
O=C(Nc1ccc(Cl)cc1)c1cnn2c(C(F)F)cc(C3CC3)nc12
→ 1.2 | 0.88

The list is partial; the hit share may differ from the screen's.
